UCH37 DUB inh – inhibitors of human deubiquitinating enzyme UCH37 | 0.33% of 330,000 active | purified proteasome/UCH37, Ub-AMC cleavage fluorescence | Q9Y5K5 | AID 588478 | inhibition, % (no concentration beside the values);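 active = mean of two replicates above 20%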;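 note: 0% = compound-free wells with enzyme and 100% = wells lacking proteasome; stock transfer was 100 nL into about 20 µL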
Target sequence (Q9Y5K5 whole entry, looked up): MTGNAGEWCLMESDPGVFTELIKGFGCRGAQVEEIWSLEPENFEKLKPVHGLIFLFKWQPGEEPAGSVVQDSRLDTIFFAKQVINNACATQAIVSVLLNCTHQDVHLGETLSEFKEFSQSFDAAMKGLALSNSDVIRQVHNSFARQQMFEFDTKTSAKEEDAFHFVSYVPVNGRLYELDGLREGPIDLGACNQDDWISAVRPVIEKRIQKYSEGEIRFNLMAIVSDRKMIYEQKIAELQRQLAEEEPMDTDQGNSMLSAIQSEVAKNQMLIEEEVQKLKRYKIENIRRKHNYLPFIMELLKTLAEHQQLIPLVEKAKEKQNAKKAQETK
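Signal – fluorescence, ex 355 nm, em 460 nm · System – Proteasome-bound UCH37 · Input – 0.15 nM proteasome as dispensed · Timing – 30 min preincubation with enzyme, 25 min cleavage at room temperature · Read-out basis – percent inhibition of cleavage signal versus uninhibited and no-proteasome wells · Medium – Tris-HCl pH 7.4 with ATP-MgCl2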
FGF22 binding – binders of recombinant human FGF22 by thermal shift; Q9HCT0; SYPRO orange fluorescence; percent of sucrose octasulfate shift, DMSO zero; calls only at 9.99 µM; 1.5% of 340,000 active; AID 651658;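 active = melting point raised past a set limit in the mean and every replicate; three in four hits are not shown here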
Target sequence (Q9HCT0 whole entry, looked up): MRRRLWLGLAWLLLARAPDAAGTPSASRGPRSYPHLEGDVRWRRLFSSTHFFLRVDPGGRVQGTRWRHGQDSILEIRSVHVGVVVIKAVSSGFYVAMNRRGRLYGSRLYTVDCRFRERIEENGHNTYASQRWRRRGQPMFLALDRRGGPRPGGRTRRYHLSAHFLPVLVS
Beta2AR agonist – activates human beta-2 adrenergic receptor causing internalization; P07550; Am2.2-beta2AR cells, FAP receptor internalization, flow cytometry; reference of the scale not given here; response, % (concentration not given with the values); 0.43% of 340,000 active; AID 504454;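 active = response above a set limit, near 3 SD of response in nonfluorescent compounds, cut at about 42% in these data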;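 note: stock transfer was 100 nL into about 11 µL; a reference agonist was the positive control; negative values mostly stem from fluorescent compounds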
Ecoli growth – blocks Escherichia coli growth | OD600, 23 h; hits give low values | OD600 absorbance (no concentration beside the values) | 0.21% of 330,000 active | AID 1053175;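 active = OD600 absorbance below the run mean of sample wells minus 3.6 SD, in any replicate, cut at about 0.56 in these data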;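 note: stock transfer was 300 nL into about 60 µL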
HNF4A DNA FP – change in binding of human HNF4 alpha to DNA; P41235; HNF4a-FITC DNA binding, fluorescence polarization, 1 h; activity change, % at 10 µM; 0.3% of 360,000 active; AID 1224865; in the data active = activity change above about 30%, passing the limit was not always enough;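 note: controls were the assay level and a saturating level of protein; the project sought stronger binding though the title names inhibitors; some compounds called inactive have numbers as strong as hits; positive values seem to mean higher polarization but the record does not say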
Target sequence (P41235 whole entry, looked up): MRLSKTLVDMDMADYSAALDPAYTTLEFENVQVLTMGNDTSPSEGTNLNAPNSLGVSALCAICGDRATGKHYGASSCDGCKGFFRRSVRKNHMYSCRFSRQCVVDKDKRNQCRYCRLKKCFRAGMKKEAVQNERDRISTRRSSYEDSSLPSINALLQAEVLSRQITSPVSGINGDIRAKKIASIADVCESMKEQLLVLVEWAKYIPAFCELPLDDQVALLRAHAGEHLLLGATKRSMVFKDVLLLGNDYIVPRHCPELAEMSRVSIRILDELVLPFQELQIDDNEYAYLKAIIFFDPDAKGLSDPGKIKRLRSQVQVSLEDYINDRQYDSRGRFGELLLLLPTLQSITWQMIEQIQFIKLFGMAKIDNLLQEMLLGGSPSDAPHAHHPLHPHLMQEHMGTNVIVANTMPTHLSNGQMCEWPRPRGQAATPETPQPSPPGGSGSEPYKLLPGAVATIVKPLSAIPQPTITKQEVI
ALR inh – blocks human ALR sulfhydryl oxidase activity. 3.8% of 290,000 active. AID 485317. inhibition, % (concentration not given with the values). purified ALR, DTT oxidation, H2O2 HRP-luminol luminescence. P55789;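 active = mean and each replicate at 75% or more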;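 note: stock transfer was 7.5 nL into about 7.5 µL; 0% = neutral wells and 100% = wells with inactivated enzyme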
rRNA inh HTS – inhibits bacterial ribosomal RNA function over humanized ribosomes. AID 720706. GFP signal change (wild-type ribosome), % (no concentration beside the values). E. coli WT GFP vs humanized-ribosome RFP mutants, fluorescence, 24 h; hits give low values; DMSO median 0, no signal -100. 1.6% of 350,000 active;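 active = significant combined selectivity score with lowered wild-type GFP, culture density cut under 30%, mutant RFP and density less affected; inactive = any of these conditions unmet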; note: one replicate is shown; some compounds called inactive have numbers as strong as hits
rRNA inh HTS OD600 – further read-out of rRNA inh HTS, marked with its call; OD600 change, %; measured here: OD600 growth;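 optical density of the mix in the first replicate; 0 = DMSO median and -100 = no signal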
rRNA inh HTS RFP – second read-out of rRNA inh HTS, no call of its own (marks repeat the call); RFP signal change, %; measured here: RFP humanized mutant strains;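 first replicate; 0 = DMSO median and -100 = no signal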
* marks the source's active call; other numbers are inactive results; i = inactive; nt = not tested or not shown; & = joins results of further samples.

UCH37 DUB inh	FGF22 binding	Beta2AR agonist	SMILES	Ecoli growth	HNF4A DNA FP	ALR inh	rRNA inh HTS	rRNA inh HTS OD600	rRNA inh HTS RFP
0.8	nt	5	CCC(C)NC(=O)CCS(=O)(=O)c1ccc(Br)s1 (stereo not drawn)	0.73	-0.5	-7	nt	nt	nt
1.5	i	2	Cc1c(Cl)cccc1NC(=O)CSC(C)c1nc2ccccc2c(=O)[nH]1 (stereo not drawn)	0.72	1.5	-8	17	11	2.4
-3.0	nt	4	COc1ccc(Nc2nc(CC(C)=O)ns2)cc1	0.72	-1.0	3	nt	nt	nt
0.6	i	nt	CCOC(=O)c1ccc(NC(=O)Nc2cc(C)cc(C)n2)cc1	0.68	nt	-3	12	14	6.0
2.4	nt	2	Cc1nnnn1CC(=O)Nc1cccc([N+](=O)[O-])c1	0.7	0.9	20	4	5	2.8
4.6	i	-22	CC(C)CCn1c(=O)c2ccccc2n2c(=S)[nH]nc12	0.69	-7.2	53	-10	-12	-0.7
-0.9	nt	3	COCCSc1nnc(NC(=O)C2CCCCC2)s1	0.64	-1.8	-1	nt	nt	nt
6.7	nt	5	Cc1nn(C)c(C)c1NC(=O)CSc1nc(Cc2ccccc2)nc2c1cnn2-c1ccccc1	0.67	-1.8	-1	nt	nt	nt
-10.0	i	-14	CCN(CC(=O)Nc1c(F)cccc1F)C(=O)/C=C/c1ccc(OCC#N)c(OC)c1	0.68	0.6	-1	-3	10	-0.9
-23	i	-4	O=C(COC(=O)c1cc(=O)[nH]c2ccccc12)Nc1ccc(F)cc1F	0.68	0.7	-4	15	7	4.1
0.4	nt	0	Cn1c(=O)c2c(nc(SCC(=O)NCc3ccc4c(c3)OCO4)n2Cc2ccc(F)cc2)n(C)c1=O	0.77	3.5	4	nt	nt	nt
1.5	i	-10	Cc1cccc(C(=O)c2cn[nH]c2-c2ccccc2O)c1	0.67	0.7	13	-1	12	-0.2

The list continues.
UCH37 DUB inh	FGF22 binding	Beta2AR agonist	SMILES	Ecoli growth	HNF4A DNA FP	ALR inh	rRNA inh HTS	rRNA inh HTS OD600	rRNA inh HTS RFP
-11	nt	-1	CC1(C)CC(=O)C2=C(C1)NC(Nc1nc3ccccc3o1)=NC21CCCC1	0.77	1.9	-31	nt	nt	nt
-9.8	i	-6	COc1cccc(COc2ccc3ccc(=O)oc3c2)c1	0.67	-3.0	-1	-6	20	0.4
0.1	nt	0	COC(=O)c1cc(Br)c(=O)n(Cc2ccncc2)c1	0.72	-2.0	-4	nt	nt	nt
5.0	i	-5	CCOC(=O)c1sc(=S)n(-c2ccccc2)c1NC(C)=O	0.7	0.0	0	0	-8	1.9
-1.3	nt	2	COc1ccc(N2CCN(C(c3cc4ccc(C)cc4[nH]c3=O)c3nnnn3C3CCCC3)CC2)cc1 (stereo not drawn)	0.73	-2.2	-14	nt	nt	nt
2.1	nt	1	Cc1ccc(S(=O)(=O)Cn2cnnn2)cc1	0.68	1.4	-5	nt	nt	nt
2.2	i	-1	CC(C)N(Cc1nc(-c2ccc(Cl)cc2)no1)C(=O)CCCN1C(=O)c2ccccc2C1=O	0.78	-1.0	nt	0	-8	18
4.2	i	-4	Cc1ccc(NC(=S)NC(C)(C)C)c([N+](=O)[O-])c1	0.59	-2.2	4	9	20	-4.9
1.8	i	-5	Cc1cccc(NC(=O)CSCC(=O)Nc2ccc(S(=O)(=O)N3CCCC3)cc2)c1	0.62	2.8	15	-6	-8	-3.5
2.8	nt	-5	CCN(CC)C(=O)c1sc(N)c(C(=O)OC(C)C)c1C	0.68	2.8	nt	nt	nt	nt
1.5	nt	6	Cc1coc(C)c1C(=O)CC1(O)C(=O)N(CCc2ccccc2)c2ccccc21 (stereo not drawn)	0.63	5.4	3	nt	nt	nt
nt	i	nt	O=C(OCc1cn([C@@H]2CN(CC3CCCCC3)[C@@H](c3ccccc3)C[C@H]2O)nn1)c1ccccc1	nt	-0.7	nt	12	1	3.6

Next part.
UCH37 DUB inh	FGF22 binding	Beta2AR agonist	SMILES	Ecoli growth	HNF4A DNA FP	ALR inh	rRNA inh HTS	rRNA inh HTS OD600	rRNA inh HTS RFP
3.7	i	0	CCOC(=O)c1c(C)n(C)c2ccc(OCC(O)CNCCc3ccccc3)cc12 (stereo not drawn)	0.65	0.9	-7	-4	-6	24
0.9	i	12	CCOc1ccc(CN2CCCC(CO)(Cc3ccccc3F)C2)cc1 (stereo not drawn)	0.63	1.5	-2	-4	-4	0.1
nt	i	nt	CC(=O)Nc1cc(-c2cccc(F)c2)cn2c(-c3ccc(F)cc3)cnc12	nt	12	nt	1	16	2.7
4.1	i	-2	CCOc1ccccc1C(=O)OCC(=O)Nc1cc(S(=O)(=O)N2CCOCC2)ccc1C	0.66	-3.6	nt	-5	-5	-2.6
4.7	i	0	COc1ccc(C(=O)N2CCN(S(=O)(=O)c3ccc(C)cc3C)CC2)cc1OC	0.74	1.3	nt	-6	-14	1.9
2.1	i	4	O=C(O)C(c1ccccc1)N1C(=O)c2ccccc2C1=O (stereo not drawn)	0.65	4.0	-4	12	7	-0.2
1.7	i	0	Cc1ccc(NC(=O)NC2CC(=O)N(c3ccc4c(c3)OCCO4)C2)c(C)c1 (stereo not drawn)	0.62	-1.4	-20	6	9	-0.4
0.6	nt	3	CCc1ccccc1N1CCN(S(=O)(=O)c2ccc(F)c(C)c2)CC1	0.72	-3.4	-3	nt	nt	nt
1.1	nt	-15	CCOC(=O)c1c(NC(=O)CSc2nnc(C)s2)sc2c1CCN(C)C2	0.81	73*	-7	nt	nt	nt
4.3	i	-1	CC(NC(=O)CN1CCN(c2cccc(Cl)c2)CC1)c1ccccc1 (stereo not drawn)	0.64	0.1	10	-28*	-18*	-0.1*
8.2	i	2	Cn1nccc1NC(=O)c1nccnc1C(=O)O	0.63	6.1	-3	15	11	2.0
1.4	i	21	CCN1CCN(CCCNC(=O)C2CCCN(c3nc4c(C)cc(C)cc4s3)C2)CC1 (stereo not drawn)	0.74	1.7	30	-3	-10	4.7

Additional entries:
UCH37 DUB inh	FGF22 binding	Beta2AR agonist	SMILES	Ecoli growth	HNF4A DNA FP	ALR inh	rRNA inh HTS	rRNA inh HTS OD600	rRNA inh HTS RFP
1.1	i	-4	O=c1c(-c2ccco2)[n+]([O-])c2ccccc2n1OCc1ccccc1[N+](=O)[O-]	0.68	2.3	-1	8	12	3.4
nt	nt	-13	Cc1cc(C)nc(/N=C(\N)Nc2ccccc2-c2ccccc2)n1	nt	2.6	2	-13	-35	0.1
0.2	i	8	COc1ccccc1CNC(=O)[C@@H]1CCCN1S(=O)(=O)c1ccc(C)cc1	0.63	-3.7	nt	-7	-7	-3.5
1.2	i	2	Cc1[nH]c2ccc(C(=O)N3CCN(C)CC3)cc2c1C	0.73	-2.0	8	7	11	3.3
-0.2	nt	-4	c1ccc(-c2[nH]ncc2-c2nc3ccccc3[nH]2)cc1	0.68	-3.0	4	nt	nt	nt
2.7	i	-2	COc1ccc(N(Cc2ccccc2)C(=O)c2ccccc2[N+](=O)[O-])cc1	0.65	-0.5	-8	-35	-40	-8.9
0.8	i	17	COC(=O)[C@@]12CCCCN1[C@H](c1ccc(-c3cccc(Cl)c3)c(OC)c1)[C@@H]1C(=O)N(C)C(=O)[C@@H]12	nt	-1.8	-9	2	11	-1.5
5.7	i	-2	CCCCN(Cc1ccco1)C(=O)C1CCCN(c2ncnc3c2nc2n3CCCCC2)C1 (stereo not drawn)	0.67	0.0	-2	-49	-56	2.5
-0.1	i	-11	C=CCNC(=O)c1cc(-c2cccnc2)nc2ccccc12	0.68	-0.8	-4	5	17	-2.1
nt	i	nt	Cc1ccc(-c2nn3c(-c4ccccc4)nnc3o2)cc1	nt	1.1	nt	15	13	2.6
0.7	i	1	CC(=O)Nc1ccc(S(=O)(=O)NCc2nc(-c3ccccc3)no2)cc1	0.67	0.8	nt	1	2	-1.1
4.6	i	-5	C[C@@H]1CN([C@H](C)CO)C(=O)c2cc(NC(=O)c3ccncc3)ccc2O[C@@H]1CN(C)C(=O)Nc1ccccc1	0.71	6.7	2	1&14	9&11	-3.6&1.9

(continued)
UCH37 DUB inh	FGF22 binding	Beta2AR agonist	SMILES	Ecoli growth	HNF4A DNA FP	ALR inh	rRNA inh HTS	rRNA inh HTS OD600	rRNA inh HTS RFP
0.2	i	-4	O=C(Nc1c2c(nc3ccccc13)CCCC2)c1cccc([N+](=O)[O-])c1	0.65	-0.2	-11	6	6	-6.8
0.1	nt	-17	CCCNC(=O)Nc1ccc2c(c1)nc(C)n2C	0.73	-0.8	-9	nt	nt	nt
2.0	i	2	Cc1cccc(NC(=O)c2c([N+](=O)[O-])c(C(C)(C)C)nn2C)c1	0.71	-2.0	-1	13	2	-0.1
nt	i	-11	CCOc1ccc(CCN2C(=S)N([C@@H](CC(C)C)CN3CCCC3CN3C(=S)NC[C@@H]3Cc3ccc(O)cc3)C[C@@H]2CC(C)C)cc1 (stereo partly drawn)	nt	-3.0	nt	17	16	29
nt	i	11	C/C(=N\Nc1cc(N2CCCCC2)nc(C)n1)c1ccc(Br)cc1	nt	1.7	0	-36	-50	7.7
4.2	i	-9	Cc1cccc(C)c1N1C(=O)CN(Cc2ccccc2)C1=S	0.69	3.2	-6	-22*	-17*	-3.3*
-3.5	i	-3	COc1ccc(Nc2nc(C)nc3sc4c(c23)CCC4)cc1O	0.67	0.0	-17	6	3	-2.8
0.4	i	1	CCOC(=O)CNC(=O)c1ccc(Cl)s1	0.68	3.2	-1	11	11	3.2
6.0	i	2	CC(=O)c1c(N2CCOCC2)nc(=S)n(-c2cc(C)ccc2C)c1C	0.67	6.1	1	5	11	-0.3
3.8	nt	-7	Cc1cccc(N2CCN(C(=O)COc3cc(=O)n(C)c4ccccc34)CC2)c1C	0.65	0.2	nt	nt	nt	nt
1.0	i	12	COc1cccc(CN(C)C(=O)c2cccc(NC(=O)CC3SC(N4CCCCC4)=NC3=O)c2)c1OC (stereo not drawn)	0.72	1.9	8	8	2	1.3
-1.1	nt	1	COc1ccccc1NC(=O)CNS(=O)(=O)c1ccccc1	0.69	-4.7	-6	nt	nt	nt
7.4	i	-14	CN(C(=O)CCN1C(=O)/C(=C/c2ccccc2)SC1=S)C1CCS(=O)(=O)C1 (stereo not drawn)	0.65	-0.4	-5	-8	-3	-2.5

Compound profiles, as listed above. Order of values: UCH37 DUB inh | FGF22 binding | Beta2AR agonist | Ecoli growth | HNF4A DNA FP | ALR inh | rRNA inh HTS | rRNA inh HTS OD600 | rRNA inh HTS RFP
Record of Cc1cccc(N2CCN(C(=O)COc3cc(=O)n(C)c4ccccc34)CC2)c1C = 3.8 | nt | -7 | 0.65 | 0.2 | nt | nt | nt | nt
Record of CN(C(=O)CCN1C(=O)/C(=C/c2ccccc2)SC1=S)C1CCS(=O)(=O)C1 (stereo not drawn) = 7.4 | i | -14 | 0.65 | -0.4 | -5 | -8 | -3 | -2.5

Bioassay records (PubChem BioAssay)

The list is partial; rates above refer to the full screens.
